From PubChem
Rango dissoc inh: qHTS Assay for Inhibitors of RanGTP induced Rango (Ran-regulated importin-beta cargo) - Importin beta complex dissociation. Biochemical FRET Rango-importin beta, RanGTP-induced dissociation. Potency, µM (highest dose often 46.1 µM), for inactives: at the highest dose activity change, negative = inhibition. 0.071% of 340,000 active; active means falling FRET ratio curve, often poorly fitted, with flat reads before Ran was added; inconclusive means other falling curves, or compound fluorescence or quenching; inactive means flat or rising ratio curve;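 also: potency is read from the fitted curve at half-maximal effect; % of control where 0% means no effect; nearly all actives have a fitted effect of over 45% in size; -100% = wells without RanGTP and RCC1; the record marks most hits as doubtful in a second field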
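Rango FRET biosensor (snurportin-1 IBB flanked by N-terminal EYFP and C-terminal CFP10) at 0.1 uM, with 0.25 uM importin beta in PBS, 1mM DTT, 0.02% Tween-20, 0.1% BSA. 0.6 uM Ran, 2mM GTP and 0.2 uM RCC1 were then added for 45 min at room temperature. Inhibition read as loss of FRET rise.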
GLA inh pH 4.5: qHTS Assay for Inhibitors of Human alpha-Galactosidase at pH 4.5; Alpha-galactosidase A (Homo sapiens), P06280; purified enzyme, 4-MU-alpha-Gal fluorescence, pH 4.5; activity change, negative = inhibition, % at 105 µM; 230,000 tested, under 10 active; inconclusive = small, poorly fitted or top-dose-only inhibition, or a rising curve; inactive = flat fitted curve, though single readings scatter; no compound was filed as active;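 also: 0% = full activity with enzyme and -100% = basal without enzyme; dose as in the result columns while the protocol names 77 µM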
Rango-impB inh: qHTS Assay for Inhibitors of Rango (Ran-regulated importin-beta cargo) - Importin beta complex formation. Rango CFP/YFP FRET sensor + importin beta, 45 min. Potency, µM (doses to about 92.2 µM), without a hit: at the top dose inhibition of complex formation. 0.031% of 340,000 active. AID 540263, 2011; active = rising FRET ratio curve, often small or poorly fitted; inconclusive = mostly compound fluorescence or quenching in the first reads; inactive = flat curves in all reads;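 also: potency is read from the fitted curve at half-maximal effect; 0% = DMSO wells and 100% = buffer wells lacking importin beta; nearly all actives have a fitted effect of over 15% in size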
Target sequence (Q14974 whole entry, looked up): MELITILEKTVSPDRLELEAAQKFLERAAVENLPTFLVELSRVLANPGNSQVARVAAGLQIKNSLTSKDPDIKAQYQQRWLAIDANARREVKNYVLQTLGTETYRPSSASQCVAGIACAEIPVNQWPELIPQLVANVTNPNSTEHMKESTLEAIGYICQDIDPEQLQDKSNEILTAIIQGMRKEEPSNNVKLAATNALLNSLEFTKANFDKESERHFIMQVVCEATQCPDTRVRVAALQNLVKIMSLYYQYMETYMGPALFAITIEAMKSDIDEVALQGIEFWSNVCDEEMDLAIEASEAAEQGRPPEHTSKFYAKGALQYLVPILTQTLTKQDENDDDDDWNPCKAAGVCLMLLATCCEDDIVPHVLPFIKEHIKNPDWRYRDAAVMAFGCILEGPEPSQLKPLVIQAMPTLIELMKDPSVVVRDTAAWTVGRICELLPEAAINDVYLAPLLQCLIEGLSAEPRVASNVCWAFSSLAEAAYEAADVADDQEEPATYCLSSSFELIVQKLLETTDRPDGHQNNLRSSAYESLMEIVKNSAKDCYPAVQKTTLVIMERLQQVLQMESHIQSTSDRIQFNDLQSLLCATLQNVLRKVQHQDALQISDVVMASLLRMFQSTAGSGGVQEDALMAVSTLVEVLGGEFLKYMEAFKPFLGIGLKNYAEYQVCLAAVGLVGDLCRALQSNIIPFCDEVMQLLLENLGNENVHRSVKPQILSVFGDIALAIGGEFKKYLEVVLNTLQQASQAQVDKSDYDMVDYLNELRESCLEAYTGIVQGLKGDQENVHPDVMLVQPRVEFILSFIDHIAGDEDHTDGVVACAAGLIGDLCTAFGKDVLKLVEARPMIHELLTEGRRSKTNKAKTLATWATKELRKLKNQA
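FRET biosensor Rango (snurportin 1 IBB between N-terminal EYFP and C-terminal Cerulean), 50 nM in PBS/1 mM DTT/0.02% Tween-20/0.1% BSA, preincubated 5 min RT with compound; 0.125 microM importin beta added, 45 min RT, CFP/YFP FRET ratio read.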
miR-21 reporter: qHTS Assay for Modulators of miRNAs and/orActivators of miR-21; HeLa miR-21 FLuc reporter, luciferase, 48 h; Potency, µM (series often up to 38.3 µM), inactives show at the highest dose reporter change, positive = more light; 340,000 tested, under 10 active; AID 2288, 2010; active = well fitted rising curve with a large enough effect; inconclusive = small, poorly fitted or top-dose-only effect; inactive = no such curve, though single readings can be large or run the other way;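 also: % of control where 0% means no effect; miR-21 action dims this reporter so a rising signal means less miR-21 action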
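Using DMEM plus 10% FBS, HeLa miR-21-FLuc cells are incubated with test compounds (final up to about 40uM) for 48 hours; firefly luciferase signal is then imaged following reagent-mediated lysis.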
* = called active by the depositor; ? = inconclusive; / = not tested or not shown; & = joins results of further samples. These rows are one share of the data; count on the stated rates, not on these rows.

miR-21 reporter	Rango-impB inh	GLA inh pH 4.5	Rango dissoc inh	Compound
-27%	2.8%	4	-12%	CCOC(=O)C(=O)CC(=O)c1ccc2c(c1)OCCO2
30%	-3.3%	5	0%	CCC(NC(=O)Nc1nnc(C(F)(F)F)s1)(C(F)(F)F)C(F)(F)F
0%	2.9%	1	-7%	O=C(COc1ccccc1)NC(=S)Nc1cccc([N+](=O)[O-])c1
5%	2.8%	8	7%	Cc1cccc(C)c1NC(=O)COC(=O)c1cc(=O)c2ccccc2o1
0%	0.1%	0	1%	CCC(C)NCCCCOc1cc(C)cc(C(C)C)c1 (stereo not drawn)
/	-4.1%	/	-1%	COc1ccccc1NS(=O)(=O)c1ccc(C)c(C(=O)Nc2cc(C)on2)c1
-1%	0.0%	3	16%	COc1ccc(N(CCC#N)S(=O)(=O)c2ccc(Cl)cc2)cc1
1%	-0.1%	3	-6%	CCN(C(=O)COC(=O)CNC(=O)c1ccc(C)s1)c1ccccc1
-11%	0.5%	9	12%	CCN(C(=O)c1cc2ccccc2oc1=O)c1cccc(C)c1
-16%	0.1%	-2	-7%	COc1ccc(C2=NOC(C(=O)NC(C)C)C2)cc1 (stereo not drawn)
2%	0.0%	-6	8%	COC(=O)c1c(C(=O)OC)c2n(c1C)CCC2
-3%	1.3%	-1	11%	COc1cc(C2CC(=O)C=C(O)C2)cc(OC)c1OC (stereo not drawn)
-24%	-0.5%	1	-12%	CN1CCN(c2ccc(-c3ccnn3C(=O)Nc3ccccc3)cc2)CC1
-17%	4.1%	3	8%	CNC(=O)COc1ccccc1C(=O)Nc1ccc2c(c1)oc1ccccc12
-12%	-3.2%	-4	-5%	Cc1ccc(S(=O)(=O)C/N=C(/NC(=S)N(c2ccccc2)c2ccccc2)c2ccccc2)cc1
1%	-2.4%	-3	12%	COCCn1nnnc1CN1CCN2CCCC2C1 (stereo not drawn)
/	?	/	?	O=c1c2ccccc2nc(/C=C/c2cc(Br)ccc2O)n1CCO
-3%	-0.3%	/	1%	CCOc1ccccc1OCCN1CCCC1
/	?	/	-21%	CC(=O)OC1(C(C)=O)CCC2C3CC(Cl)C4=CC(=O)CCC4(C)C3CCC21C (stereo not drawn)
/	-0.1%	/	0%	COc1cccc(NC(=O)/C=C/c2ccc(S(=O)(=O)N3CCOCC3)cc2)c1
30%	1.2%	-6	-8%	O=C(Nc1ccc(Cl)cc1)N1CCC(c2nc(-c3ccccc3Cl)no2)CC1
/	?	/	?	COC(C(=O)C(O)C(C)O)C1Cc2cc3cc(OC4CC(OC5CC(O)C(O)C(C)O5)C(O)C(C)O4)c(C)c(O)c3c(O)c2C(=O)C1OC1CC(OC2CC(OC3CC(O)C(OC)C(C)O3)C(O)C(C)O2)C(O)C(C)O1 (stereo not drawn)
-6%	-2.0%	-16	4%	Cc1ccccc1-n1cc(-c2ccc(Br)cc2)nc1SCC(N)=O
-5%	0.2%	10	9%	CN(C(=O)COC(=O)c1ccccc1C(=O)N1CCN(c2ccccc2)CC1)c1ccccc1
-2%	-8.3%	0	10%	O=c1[nH]c(CN2CCN(c3ccccn3)CC2)nc2c(Br)cc(Br)cc12

Overlap with the part before: 2 entries, followed by the next part.
miR-21 reporter	Rango-impB inh	GLA inh pH 4.5	Rango dissoc inh	Compound
-5%	0.2%	10	9%	CN(C(=O)COC(=O)c1ccccc1C(=O)N1CCN(c2ccccc2)CC1)c1ccccc1
-2%	-8.3%	0	10%	O=c1[nH]c(CN2CCN(c3ccccn3)CC2)nc2c(Br)cc(Br)cc12
/	-2.2%	/	-5%	O=C(O)c1cccc2c1C(=O)c1ccc(-c3ccc(Cl)c(C(F)(F)F)c3)cc1S2(=O)=O
-17%	-3.2%	0	-17%	COc1ccc(NC(=S)N(CCN(C)C)C(C)c2ccco2)cc1Cl (stereo not drawn)
-1%	2.2%	2	-10%	Cc1ccc2nc(C)cc(NCCO)c2c1
-6%	4.7%	6	2%	COc1cccc(C(C)NC(=O)Nc2cc(Cl)ccc2OC)c1 (stereo not drawn)
1%	-0.8%	-5	-1%	Cc1ccc(Cl)cc1N1CCN(C(=O)C2CCCN(S(=O)(=O)c3cnc[nH]3)C2)CC1 (stereo not drawn)
-3%	-0.8%	/	0%	Nn1c(SCC(=O)Nc2cccc(C(F)(F)F)c2)nncc1=O
9%	0.5%	/	-8%	COc1cccc(CNC(=S)Nc2ccc(Cl)cc2C)c1
6%	0.2%	/	3%	COCCN(C(=O)CCC(=O)Nc1cc(C)on1)C(C(=O)NC1CCCC1)c1ccc(C(C)C)cc1 (stereo not drawn)
?	-0.3%	/	2%	CCOc1ccc(CN(C)C(=O)[C@H](Cc2ccccc2)NC(=O)OCc2ccccc2)cc1OC
0%	1.7%	?	11%	Cc1ccc2ccc(C)[n+](CCCS(=O)(=O)[O-])c2c1
2%	-1.2%	1	1%	Cc1cc(Cl)ccc1Oc1nc(-c2ccc(F)cc2)ccc1C#N
-7%	1.6%	-1	2%	CCN1CCN(C(=S)NCC(C)C)CC1
-6%	0.1%	1	0%	COc1ccccc1NNC(=O)c1cccnc1Oc1ccccc1
0%	4.2%	7	1%	CC(C)Cc1nc2ccccc2[nH]1
3%&0%	?	/	?	COc1ccc(Nc2cc(C(=O)NC3CCCC3)c3ccccc3n2)c(OC)c1
3%	-2.1%	/	7%	COc1ccc(-n2c(COc3ccc(C)cc3)n[nH]c2=S)cc1
-4%	12%	6	-13%	CCC(C)[C@H](NC(=O)OC(C)(C)C)C(=O)N/N=C/c1ccc2nccnc2c1 (stereo partly drawn)
0%	-7.3%	2	14%	O=C(CCNC(=O)Cn1cnc2ccccc2c1=O)NCCC1=CCCCC1
-5%	-0.9%	-4	9%	O=C(O)c1ccc(COCC(F)(F)F)cc1
/	-3.4%	/	8%	Oc1ccc(Cl)cc1Nc1nc(NCC2CCCO2)c2ccccc2n1 (stereo not drawn)
/	1.5%	/	2%	CC(C)(C)OC(=O)C[C@H]1C/C=C\C[C@@H](CC(=O)N[C@@H](CO)Cc2ccccc2)C(=O)NC[C@H](c2ccccc2)OC1=O
0%	6.8%	/	19%	COc1ccc(N2CCN(c3nc(C)c(C)c(=O)[nH]3)CC2)cc1
/	3.9%	/	?	CC(CCCCCCCCC(=O)O)N(CCO)C(=O)OC(C)(C)C (stereo not drawn)
0%	1.0%	-6	30%	CN(C)S(=O)(=O)c1cccc(NC(=S)N2CCc3ccccc32)c1
1%	5.3%	/	0%	Cc1cccc(NS(=O)(=O)c2ccc(C(C)(C)C)cc2)n1

More compounds follow:
miR-21 reporter	Rango-impB inh	GLA inh pH 4.5	Rango dissoc inh	Compound
1%	/	-4	/	CN(Cc1ccccc1NC(=O)c1ccc(S(=O)(=O)N(C)C)cc1)C1CCCCC1
8%	1.1%	/	-14%	COc1ccccc1C(CNc1nc(C(F)(F)F)nc2ccccc12)N(C)C (stereo not drawn)
0%	0.5%	-3	0%	O=C(COC(=O)Cc1ccc(Br)cc1)NC1CCCCC1
-22%	1.1%	-4	-8%	O=C(COc1ccccc1)N(Cc1cc2ccccc2[nH]c1=O)CC1CCCO1 (stereo not drawn)
-6%	0.2%	1	3%	CC(=O)NC(NC(C)=O)c1cccc(OCc2ccccc2)c1
-23%	-2.8%	/	-5%	Cc1cccn2cc(-c3cccc(S(=O)(=O)N4CCOCC4)c3)nc12
/	?	/	?	CC(C)CNC(=O)C1Nc2ccccc2C2C=CCC12 (stereo not drawn)
/	-2.2%	/	4%	NC(=O)c1nc(C(=O)N2CCN(c3ccccc3)CC2)c2ccccc2n1
-34%	-1.7%	-1	-1%	O=C(OCC#CCSc1nc2ccccc2o1)c1cc2ccccc2o1
-47%	-1.0%	-2	-5%	CCN1CCCC1CNc1ncnc2c1[nH]c1ccc(Cl)cc12 (stereo not drawn)
1%	0.9%	/	13%	COc1cc(C(=O)N2CCN(C3CCC(C)CC3)CC2)cc(OC)c1OC (stereo not drawn)
0%	0.0%	/	0%	COc1ccc(CC(=O)NCC(=O)NC(Cc2ccccc2)C(=O)O)cc1 (stereo not drawn)
/	-0.1%	/	-9%	O=C(OCCOc1ccccc1Cl)c1cc(S(=O)(=O)N2CCCCC2)ccc1N1CCOCC1
-3%	-1.4%	-17	4%	CC1(C)OC(=O)N(Cc2ccco2)C1(C)O (stereo not drawn)
9%	1.9%	2	1%	COCCCNC(=O)c1ccc(Cn2c(=O)c3ccccc3n(CC(=O)NCc3ccco3)c2=O)cc1
3%	-12%	-2	-6%	COC(=O)c1ccc(NS(=O)(=O)c2ccc(Cl)cc2)o1
/	-8.8%	/	-12%	O=c1cc(SCc2ccc(Cl)cc2Cl)nc[nH]1
2%	8.2%	-6	13%	Cc1cccc(CCNC(=O)C2CCN(S(=O)(=O)c3ccccc3)CC2)c1
12%	-1.3%	0	6%	COc1ccc(N(CC(=O)Nc2ccc(OC)c(Cl)c2)S(=O)(=O)c2c(C)noc2C)cc1
/	-0.1%	/	38%	COc1ccc(OC)c(NC(=O)COC(=O)c2n[nH]c3ccccc23)c1
-1%	-2.8%	3	-8%	Cc1ccc2nc(SCC(=O)N(CC(C)C)c3c(N)n(CC(C)C)c(=O)[nH]c3=O)[nH]c2c1
/	0.3%	/	-18%	CC(NCC(=O)Nc1ccccc1C(=O)NC1CC1)c1cccc(Cl)c1 (stereo not drawn)
0%	0.3%	/	-9%	S=c1nc(NCc2cccc(Cl)c2)c2ccccc2[nH]1
8%	1.8%	/	11%	CCOc1ccc(NC(=O)CSc2nnc(CNC(=O)c3cccs3)o2)cc1
/	1.6%	/	11%	COc1ccc(S(=O)(=O)N2CCCCC2)cc1NC(=O)CNc1ccccc1N1CCCC1=O

Additional compounds
miR-21 reporter	Rango-impB inh	GLA inh pH 4.5	Rango dissoc inh	Compound
2%	0.3%	-3	-3%	O=C(NC1CCCCC1)C(c1ccco1)N(C(=O)C(F)(F)F)C1CC1 (stereo not drawn)
-3%	0.2%	/	4%	CSCC[C@H](NC(=O)N1CCn2c1nc1ccccc12)C(=O)NCc1ccc(C)cc1
/	-0.6%	/	-10%	CN(C)CC1CCC/C(=C/c2ccc(Cl)cc2)C1=O (stereo not drawn)
/	-0.1%	/	-8%	CCCCN(C1CCS(=O)(=O)C1)S(=O)(=O)c1ccc(C(C)C)cc1 (stereo not drawn)
-54%	-2.1%	-1	-2%	O=C1CCCc2nc(N3CCc4ccccc43)ncc21
-1%	-3.1%	/	-6%	Cc1c(C(=O)N2CCNCC2)oc2ccccc12
-3%	-0.3%	-8	-2%	CCOC(=O)c1nc(-c2ccc3c(c2)OCO3)[nH]c1C
8%	-0.9%	11	12%	Cc1ccc(CNC(=O)C(Cc2ccccc2)NS(=O)(=O)c2cccs2)cc1 (stereo not drawn)
-2%	-0.5%	7	-5%	CCCC(=O)N1CCN(Cc2ccc3c(c2)OCO3)CC1

In the list so far, 4 contain bromine.
miR-21 reporter	Rango-impB inh	GLA inh pH 4.5	Rango dissoc inh	Compound
/	?	/	?	O=c1c2ccccc2nc(/C=C/c2cc(Br)ccc2O)n1CCO
-6%	-2.0%	-16	4%	Cc1ccccc1-n1cc(-c2ccc(Br)cc2)nc1SCC(N)=O
-2%	-8.3%	0	10%	O=c1[nH]c(CN2CCN(c3ccccn3)CC2)nc2c(Br)cc(Br)cc12
0%	0.5%	-3	0%	O=C(COC(=O)Cc1ccc(Br)cc1)NC1CCCCC1
